# Screening data from PubChem BioAssay.
# BJeLR lethal: kills HRASV12-expressing BJeLR cells. BJeLR (HRASV12) viability, CellTiter-Glo ATP luminescence, 48 h; reference of the scale not given here. inhibition, % (no concentration beside the values). 0.17% of 300,000 active;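 active means replicate mean above 50%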;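 further: 50 nL library stock added to about 25 µL; numbers are from one replicate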
# Numbers without * were called inactive. These rows are one share of the data, so the mix of outcomes need not match the whole.
SMILES,BJeLR lethal
O=C(Nc1ccccc1Cl)Oc1ccc2ccccc2c1,0
CN1CCc2c(sc(/N=C/c3c[nH]c4ccccc34)c2C#N)C1,7
C/C(CCN1CCc2nc(-c3ccccc3)c(-c3ccccc3)cc2C1)=N\O[C@H](C)c1cn([C@H](CO)Cc2ccccc2)nn1,0
Cc1ccc(C)c(N2CCN(CCCNC(=O)CCC(=O)N3CCOc4ccc(Cl)cc43)CC2)c1,-6
COc1ccc(CNCCc2cccc(F)c2)c2ccccc12,-2
COC(=O)[C@@H](NC(=O)O[C@@H]1C(=O)c2cc(Br)ccc2O[C@H]1c1cccc(OC)c1)C(C)C,-6
COC(=O)c1ccc(C23CC4(C2)[C@H](CN(CC2CCCCC2)[C@@H]4c2ccccc2)C3c2ccc(C(F)(F)F)cc2)cc1 (stereo partly specified),-2
Cc1c(-c2ccc(O)cc2)nc2nc(-c3ccccc3)c(-c3ccccc3)nn12,13
OC1CNCc2cc3c(cc21)OCCO3 (stereo unspecified),6
Cn1cc(C(=O)N/N=C/c2cc(Br)cs2)c2ccccc21,-2
Cc1ccc2c(-c3csc(N)n3)c[nH]c2c1,2
COCCNC(=O)Cn1c(=O)n(CCCCCC(=O)NCc2ccc3c(c2)OCO3)c(=O)c2sccc21,-6
O=[N+]([O-])/C(C(Cl)=C(Cl)Cl)=C(\Nc1ccc(F)cc1)n1cncn1,-2
COC(=O)[C@@]1(Cc2ccc(OC)cc2)[C@H]2c3cc(C(=O)N4CCCC4)n(Cc4c(CO)[nH]cc(C)c4=O)c3C[C@H]2CN1C(=O)c1ccccc1,-7
Cn1c(=O)n(C)c2cc(/C=N/NC(=O)c3ccncc3)ccc21,-2
Cc1ccc(Sc2ccc(NC(=O)CCl)cc2)c(C)c1,-4
CCc1ccc(C(=O)CSC2=C(C#N)C(c3ccco3)C(C(C)=O)=C(C)N2)cc1 (stereo unspecified),-4
CC1(C)O[C@@H]2[C@@H](CO[C@@]3(COS(N)(=O)=O)OC(C)(C)O[C@@H]23)O1,-9
CCCNC(=O)OC[C@H]1O[C@H](CCO/N=C/c2ccc(C(=O)N3[C@H](c4ccc(C)cc4)[C@@H](C)CC[C@H]3C(=O)OC)cc2)C=C[C@@H]1Oc1ccc(OC)cc1,1
CC(C)C(C(=O)N1CCN(C(=O)OC(C)(C)C)CC1)n1cc(-c2cn([C@@H](C)C(=O)N3CCN(C(=O)OC(C)(C)C)CC3)nn2)nn1 (stereo partly specified),-9
CCOC(=O)C1(CCCCCCOc2ccc(Cl)cc2)CO1 (stereo unspecified),1
CCCCc1ccc(N/C(N)=N/c2nc(C)cc(C)n2)cc1,-1
CCCC(=O)Nc1cc(C)c(NC(=O)Cc2ccccc2)cn1,-1
C/C(CCN1CCCCc2nc(C)c(C)cc21)=N\O[C@H](C)c1cn([C@H](CO)Cc2ccccc2)nn1,-1
COCc1cc(C)nc(N/N=C/c2ccc(-c3cc(C(=O)O)ccc3Cl)o2)c1C#N,-2
Cc1nc(NC(=O)c2ccccc2)sc1-c1csc(Nc2cccc(Cl)c2)n1,-1
CC1(C)Cc2c(sc3nc(=S)[nH]c(N)c23)CO1,8
CCOC(=O)c1nn(-c2ccc(Cl)cc2Cl)c(=N)c(C#N)c1C,2
COC(=O)CCCC[C@H]1SC[C@H]2NC(=O)N[C@]21O,1
COC(=O)c1ccc2c(C(C)(C)O)c(C(C)(C)O)[nH]c2c1,-2
COCCNC(=O)c1c(N)sc2c1CCCC2,5
N#Cc1c(NC(=S)NC(=O)c2ccccc2)sc2c1CCN(CCc1ccccc1)C2,3
O=C(Nc1nc(-c2ccco2)c(-c2ccco2)s1)c1cnccn1,5
Cc1cc(=O)n2[nH]c(-c3sccc3-n3c(C)ccc3C)cc2n1,-7
C(=C\c1ccccc1)/C=N/Nc1nncc(-c2ccccc2)n1,1
CCOC(=O)C1=C(Cc2ccc(C)cc2)C(=O)c2ccccc2C1=O,24
Cn1cccc1CC(=O)N/N=C/c1ccc([N+](=O)[O-])cc1,-3
CCOC(=O)c1ccc(NC(=O)Nc2ncc(Cl)cc2Cl)cc1,-1
Cc1ccc(-c2cc(C(=O)NC3=NCCS3)c3cc(Br)ccc3n2)o1,2
CN(C)C1=NC(=O)/C(=C/c2ccc(-c3ccc(S(N)(=O)=O)cc3)o2)S1,-1
CCCCCCN(C(=O)CCCCCN1C(=O)NC(c2ccc(C(C)(C)C)cc2)C(C(=O)OCc2ccccc2)=C1C)C(C(=O)NCCCC)c1ccc(OCC(=O)OC)c(C(=O)OC)c1 (stereo unspecified),8
CCOc1cc(CNc2ccccc2SC)ccc1O,-5
CC1=CC(=C2C(=O)NC(=S)NC2=O)C=C(C(F)(F)F)N1CCc1ccccc1,12
CC1(C)Cc2c(c(N3CCOCC3)nc3sc4c(N5CCOCC5)nnnc4c23)CS1,-2
COc1ccccc1Nc1nc(NCCO)c2ccccc2n1,-1

# Entries shown so far containing a halogen:
SMILES,BJeLR lethal
O=C(Nc1ccccc1Cl)Oc1ccc2ccccc2c1,0
Cc1ccc(C)c(N2CCN(CCCNC(=O)CCC(=O)N3CCOc4ccc(Cl)cc43)CC2)c1,-6
COc1ccc(CNCCc2cccc(F)c2)c2ccccc12,-2
COC(=O)[C@@H](NC(=O)O[C@@H]1C(=O)c2cc(Br)ccc2O[C@H]1c1cccc(OC)c1)C(C)C,-6
COC(=O)c1ccc(C23CC4(C2)[C@H](CN(CC2CCCCC2)[C@@H]4c2ccccc2)C3c2ccc(C(F)(F)F)cc2)cc1 (stereo partly specified),-2
Cn1cc(C(=O)N/N=C/c2cc(Br)cs2)c2ccccc21,-2
O=[N+]([O-])/C(C(Cl)=C(Cl)Cl)=C(\Nc1ccc(F)cc1)n1cncn1,-2
Cc1ccc(Sc2ccc(NC(=O)CCl)cc2)c(C)c1,-4
CCOC(=O)C1(CCCCCCOc2ccc(Cl)cc2)CO1 (stereo unspecified),1
COCc1cc(C)nc(N/N=C/c2ccc(-c3cc(C(=O)O)ccc3Cl)o2)c1C#N,-2
Cc1nc(NC(=O)c2ccccc2)sc1-c1csc(Nc2cccc(Cl)c2)n1,-1
CCOC(=O)c1nn(-c2ccc(Cl)cc2Cl)c(=N)c(C#N)c1C,2
CCOC(=O)c1ccc(NC(=O)Nc2ncc(Cl)cc2Cl)cc1,-1
Cc1ccc(-c2cc(C(=O)NC3=NCCS3)c3cc(Br)ccc3n2)o1,2
CC1=CC(=C2C(=O)NC(=S)NC2=O)C=C(C(F)(F)F)N1CCc1ccccc1,12

# (cont.)
SMILES,BJeLR lethal
C=CCN1C(=O)/C(=C/c2ccc(N(C)C)cc2)S/C1=N\c1nnc(CC)s1,8
COC(=O)c1ccc(C23CC4(C2)[C@H](CN(Cc2ccc(C(F)(F)F)cc2)[C@@H]4c2ccccc2)C3c2ccc(Cl)nc2)cc1 (stereo partly specified),4
COc1ccc2c(c1)O[C@@H](c1cccc(C(F)(F)F)c1)[C@H](OC(=O)NCCc1ccc(OC)c(OC)c1)C2=O,-10
COc1ccc2ccccc2c1/C=N\NC(=O)c1cccnc1,-7
CN(C)c1ccc2c3c(cccc13)C(=O)N(c1ccccc1)C2=O,-7
CCOc1ccc(CCNC(=O)c2ccc3c(c2)NC(=O)C2CCCN32)cc1OCC (stereo unspecified),13
CCCCC1=CC2=C(c3ccco3)C(=O)C(C)(OC(=O)c3ccc(OC)cc3)C(=O)C2=CN1C1CCCC1 (stereo unspecified),4
Oc1c(Br)cc(/C=N/Nc2nncc3ccccc23)cc1Br,-4
CC(=O)Nc1ccc([C@H]2[C@H](C)CC[C@H]3C(=O)N4[C@@H](CC[C@@H](C)[C@@H]4c4ccc(NC(C)=O)cc4)C(=O)N32)cc1,9
O=C(NCc1ccccc1)C1CCCC1,-7
CC(NC(=O)/C(C#N)=C/c1ccc(Cl)c([N+](=O)[O-])c1)c1ccccc1 (stereo unspecified),27
O=C(O)Cn1cc(/C=C2\C(=O)NC(=O)N(c3ccc(F)cc3)C2=O)c2ccccc21,1
C=CCN1C=C2C(=O)C(C)(OC(=O)c3ccco3)C(=O)C(C=C)=C2C=C1C1CC1 (stereo unspecified),0
COc1cccc(/C=N/NC(=O)NC23CC4CC(CC(C4)C2)C3)c1O,-13
NC(=S)N/N=C/c1ccc(C23CC4CC(CC(C4)C2)C3)cc1,3
C/C(=N\NC(=O)CNC(=O)C(c1ccccc1)c1ccccc1)c1ccc(C)cc1,14
COc1ccccc1Nc1nc(-c2sc(NC(=O)c3cccc(Cl)c3)nc2C)cs1,-4
Cc1ccccc1N1C(=O)/C(=C/c2ccco2)C(=O)NC1=S,13
C/C(=N\N=C(/C)c1cccc(N)c1)c1cccc(N)c1,9
CCOC(=O)c1sc(/N=C/c2c(C)[nH]n(-c3ccccc3)c2=O)c(C#N)c1C,-13
Cc1c2cnn(CC(=O)N3CCN(c4ncccn4)CC3)c(=O)c2c(C)n1Cc1ccc(F)cc1,-17
Cc1ccc(-n2c(N)c(C(=O)Nc3c(C)n(C)n(-c4ccccc4)c3=O)c3nc4ccccc4nc32)cc1C,2
O=S(=O)(Cc1ccccc1)N1CCc2ccccc21,1
N#C/C(=C/c1ccc(Br)o1)C(N)=S,24
Cc1cc2cc3c(=O)[nH]c(=O)[nH]c3nc2cc1C,-6
COC(=O)/C=C/C(=O)N1CCN(c2cccc(Cl)c2)CC1,-15
NC1=NC(c2ccccc2)N=C(Nc2ccccc2)N1 (stereo unspecified),5
CC(C)(C)c1ccc(/C([O-])=C(/C(=S)NCc2ccco2)[n+]2ccccc2)cc1,-2
COc1ccc(C)c2sc(NNC(=O)COc3ccccc3)nc12,6
CC(C)c1ccc(C2C(C#N)=C(N)N3C(=C2C#N)Sc2ccccc23)cc1 (stereo unspecified),-4
Cc1ccc(NC(=O)CSc2nnc(-c3cccs3)o2)cc1S(=O)(=O)N(C)C,1
O=[N+]([O-])c1cccc(-c2nc(Oc3ccc(Cl)cc3)c3ccccc3n2)c1,9
Oc1ccc(O)cc1,1
Cc1ccc(C)c(/C=N/Nc2nc3ccccc3c(=O)n2O)c1,-4
CC(C)(C)OC(=O)NCCCCC1=CC2=CC(=O)C(C)(OC(=O)c3cnc4ccccc4n3)C(=O)C2=CO1 (stereo unspecified),-5
C/C=C/C=C/[C@H]1Cc2cc(O)cc(O)c2O1,-2
CC[C@@]1(O)C(=O)OCc2c1cc1n(c2=O)Cc2cc3ccccc3nc2-1,91*
CC(C)Cn1c(N)c(C(=O)COC(=O)c2cc(C(F)(F)F)nc3c(C(F)(F)F)cccc23)c(=O)n(C)c1=O,2
CN=c1scc(-c2ccccc2Br)n1/N=C/c1ccc[nH]1,-2
COc1cc2cc(CN(Cc3cccs3)C(=S)Nc3cccc(C)c3)c(=O)[nH]c2cc1OC,-26
CCCc1nc(SCC(=O)N2CCCCCC2)c2c(=O)n(C)c(=O)n(C)c2n1,-5
CCn1cc(C(=O)NCc2ccccn2)c(=O)c2cc(S(=O)(=O)N3CCCCC3)ccc21,-2
O=C(Cc1cccc2ccccc12)N/N=C/c1ccc(Sc2cccc3cccnc23)o1,-5
Brc1ccccc1OCCCCCN1CCCC1,-13
CC(=O)Cc1c[nH]c2ccccc12,0
O=C(CCc1ccc(O)cc1)N/N=C/c1coc2ccccc2c1=O,2
Cc1nn(C)c(C)c1S(=O)(=O)N(CC(=O)NCc1ccco1)c1ccc(C(C)C)cc1,-6
CN1C(=O)C(Cc2ccc3c(c2)OCO3)C(=O)N(C)C1=O,0
CCOC(=O)C1=C(C)N(CCCC(=O)O)C(=O)NC1c1ccc(Br)cc1 (stereo unspecified),-11
CCOC(=O)C1=C(C)N(CCCC(=O)O)C(=O)NC1c1cc2ccccc2c2ccccc12 (stereo unspecified),-2
Cc1ccc(/C=N/N(C)C2=NS(=O)(=O)c3ccccc32)o1,2
CC(=O)OC[C@H]1O[C@H](C/C=N/O[C@@H](C)c2cn([C@H](CO)Cc3ccccc3)nn2)C=C[C@@H]1OC(C)=O,6
COc1cc(C(=O)N(C)c2nnc(-c3cccnc3)s2)cc(OC)c1OC,1
O=C(c1ccc(Cl)cc1[N+](=O)[O-])N(Cc1ccccc1)Cc1ccccc1,7
CC(C)(C)OC(=O)N1CCC2(CC1)Oc1ccc(F)cc1C(=O)C21CC(c2ccc(Cl)cc2)=NO1 (stereo unspecified),-11
O=c1cc(C(F)(F)F)[nH]c2ccc(OC(F)(F)F)cc12,34
Cc1ccc(CN2CCN(CC(=O)N3CCc4ccccc4C3)C2=O)cc1,7
Cc1ncc(CO)c(/C=N/NC(=O)c2ccc(Br)cc2)c1O,8
c1coc(C2Nc3cccc4cccc(c34)N2)c1,8
COCCNS(=O)(=O)c1ccc2c(c1)oc(=O)c1cc(S(=O)(=O)NCCOC)ccc12,-6

# Later entries
SMILES,BJeLR lethal
O=[N+]([O-])c1ccc(N2CCNCC2)c2ncccc12,3
C=CCn1c(=O)/c(=C2/Sc3ccccc3N2CC)s/c1=C1/C(=O)NN=C1C,3
Cc1ccc(S(=O)(=O)N2CCN(CC(=O)N/N=C/c3ccccc3OCC(=O)O)CC2)cc1,-2
COc1cc(CCN2C(=O)N[C@@H](c3cccc(C(F)(F)F)c3)C(C(C)=O)=C2C)cc(OC)c1OC,3
CCN1CCN(c2nc(-c3ccncc3)nc3ccccc23)CC1,-5
CCOc1cc(/C=N/NC(N)=O)ccc1OC(=O)c1ccc(C)cc1,-1
O=C1CC(NCCC2=CCCCC2)C(=O)N1c1cccc(Cl)c1Cl (stereo unspecified),4
COc1ccc(NC(=O)c2ccc(=O)[nH]c2)cc1S(=O)(=O)N1CCCCC1,15
C#CCOCCOCCOCCNc1nc(N2CCN(C(=O)[C@H](Cc3cc4ccccc4[nH]3)n3cc([C@@H](N)C(C)CC)nn3)CC2)nc(N2CCN(C(=O)[C@H](Cc3cc4ccccc4[nH]3)n3cc([C@@H](N)CC(C)C)nn3)CC2)n1 (stereo partly specified),13
COc1cc(/C=N/NC(=O)c2ccc3nc[nH]c3c2)cc(OC)c1OC,2
C1CNCCNCCCNCCNC1,-4
COc1ccc(-c2nn(-c3ccccc3)cc2/C=N/Nc2ccccn2)cc1,-6
CC(=O)Nc1cccc(C2=CC(c3ccco3)n3ncnc3N2)c1 (stereo unspecified),6
C#CCOCCOCCOCCNc1nc(N2CCN(C(=O)[C@H]([C@@H](C)CC)n3cc(CCCN=C(N)N)nn3)CC2)nc(N2CCN(C(=O)[C@H]([C@@H](C)CC)n3cc(CCCN=C(N)N)nn3)CC2)n1,-17
